# PABP polyA inh = PABP-poly(A) binding inhibition | inhibition, % at 35 µM | AID 2014 | 1% of 290,000 active | PABP-poly(A) RNA binding, fluorescence polarization | P11940;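 active means 50% or more with normal probe brightness, or confirmed in later tests; inconclusive means above 50% with abnormal brightness, or retests that disagree; inactive means below 50% or failed in later tests; about a fifth of its hits are not listed in these tables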;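 further: calls also rest on retests at 20 µM and on dose response follow-up; controls were probe without protein and protein plus probe with vehicle; some compounds called inactive have numbers as strong as hits; many hits fall short of the cut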
# Yeast UUG start = modulators of start codon recognition fidelity in yeast | S. cerevisiae UUG-firefly luciferase reporter, luminescence/redox ratio | activity score, % at 18.7 µM | 0.13% of 350,000 active;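 active means replicate mean at a twofold rise or more, about +100% in these data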;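 further: firefly luciferase made from a UUG start codon reports start codon fidelity; reporter light over untreated wells divided by growth signal over untreated wells; some hits fall short of that in this replicate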
# Rce1 inh = inhibitors of yeast Ras-converting enzyme; yeast membranes, quenched prenylated peptide cleavage fluorescence; calls only; 0.27% of 290,000 active; AID 2563;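 active means fall in fluorescence gain of 50% or more versus controls, with final raw signal at or below 3038400; inconclusive means same 50% fall but final raw signal above 3038400; inactive means fall in fluorescence gain under 50%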;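 further: plate controls were neutral control wells for no effect and wells lacking membranes for full effect; tested at 10 µM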
# Target sequence (Q03530 whole entry, looked up): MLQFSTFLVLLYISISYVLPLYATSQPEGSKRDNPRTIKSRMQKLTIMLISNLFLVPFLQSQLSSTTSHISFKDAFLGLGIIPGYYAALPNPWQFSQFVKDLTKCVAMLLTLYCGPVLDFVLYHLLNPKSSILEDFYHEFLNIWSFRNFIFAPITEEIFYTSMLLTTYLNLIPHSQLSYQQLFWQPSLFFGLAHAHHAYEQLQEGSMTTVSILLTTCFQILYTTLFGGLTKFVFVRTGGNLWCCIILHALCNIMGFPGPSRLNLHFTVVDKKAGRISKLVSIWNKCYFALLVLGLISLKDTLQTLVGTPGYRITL
# MT1-MMP act inh = MT1-MMP (human) activation inhibition. P50281. HT1080 RFP-PRO-GFP cells, GFP/RFP ratio fluorescence, overnight; percent of plate control window, DMSO zero. GFP/RFP ratio change, % at 20 µM. 0.061% of 360,000 active;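 active means GFP/RFP ratio change of at least 30% with cell ATP level not reduced by more than half and red fluorescence within 50% of control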; further: strong numbers were not always called active
#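 Compound: 20 µM single dose, 1% DMSO / System: HT1080 RFP-PRO-GFP cells / Controls: DMSO and RFP-L50D-GFP cell wells / Read-out basis: GFP/RFP fluorescence ratio / Schedule: overnight compound exposure at 37 °C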
# CSC inhib = blocks cancer stem cells. cancer stem cell-like cells viability, luminescence. inhibition, % at 7.5 µM. 1.1% of 300,000 active;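 active means mean at 75% or more and at least half the replicates too; inconclusive means mean and replicates disagree; tested in HMLE shEcad cells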;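 further: 0% = median of negative and 100% = median of positive control wells; the first replicate is given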
# eIF4H inh = inhibitors of RNA binding by human eIF4H | Q15056 | eIF4H fluorescence polarization binding assay | inhibition, % at 35 µM | 0.94% of 290,000 active;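 active means 50% or more with normal probe brightness, or confirmed in later tests; inconclusive means above 50% with abnormal brightness, or retests that disagree; inactive means below 50% or failed in later tests; about a fifth of its hits are not listed in these tables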;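 further: calls also rest on retests at 20 µM and on dose response follow-up; 0% = protein and probe with vehicle and 100% = probe without protein; strong numbers were not always called active; many hits fall short of the cut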
# Env fusion inh = blocks HIV Env-driven cell-cell fusion | AID 651610 | inhibition, % at 12.3 µM | HeLa-JRFL Env/CEM21 cell fusion, luciferase | 1.1% of 360,000 active;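 active means mean replicate inhibition score of at least 50 and every replicate individually at or above 50; inconclusive means only one of the two criteria met; inactive means mean below 50 and not all replicates reaching 50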;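 further: 0% = plate neutral controls and 100% = maraviroc near 300 nM; one replicate is shown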
# eIF4H inh retest = recorded beside eIF4H inh, whose call it bears; inhibition, %; compound at 20 µM; confirmation average;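 mean of two retest wells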
# PABP polyA inh retest = second read-out of PABP polyA inh, no call of its own (marks repeat the call); inhibition, %; compound at 20 µM; confirmation repeats;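 mean of two retest wells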
# MT1-MMP act inh RFP = also measured in MT1-MMP act inh; calls as there; RFP signal change, %; measured here: RFP expression control read;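 0 = vehicle wells; hits needed this value within 50% of zero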
# * hit, by the source's call; i = inactive; ? = inconclusive; . = no result given; + = active, no number. Rows were taken by chance, and some 3% of all compounds hit somewhere here.
SMILES,PABP polyA inh,Yeast UUG start,Rce1 inh,MT1-MMP act inh,MT1-MMP act inh RFP,CSC inhib,eIF4H inh,Env fusion inh,others
COc1cc(-c2nc3ccccn3c2/N=C/c2cccc(OC)c2O)ccc1O,10,.,+,0,1,2,-4,-2,
CC1CC(C)CN(C(=O)/C=C/c2ccc(S(=O)(=O)N3CCOCC3)cc2)C1 (stereo unspecified),.,-12,.,8,-2,-8,.,-3,
O=[n+]1cc(-c2ccccc2)n([O-])c2c1CCC2,13,-17,i,0,2,-10,2,.,
CCOC(=O)c1nn(-c2ccccc2)c2nc(Nc3ccccc3)cc(=O)n12,-2,-12,i,1,1,-1,2,.,
O=C(NC1CCCCC1)C(c1cc2ccccc2o1)N1CCOCC1 (stereo unspecified),.,-10,.,5,3,.,.,-17,
Cc1ccnc(NC(=O)c2ccc(S(=O)(=O)N3CCCCCC3)cc2)c1,.,.,i,-5,-11,3,.,-49,
CCc1ccc(CN2C(=O)c3ccccc3C2C(=O)NCc2cccnc2)cc1 (stereo unspecified),-5,-28,i,-2,-2,-6,-5,7,
CCc1ccccc1NC(=S)N(CCN(C)C)C(C)c1cccnc1 (stereo unspecified),-5,-27,i,3,2,0,-3,-19,
CC(=O)Nc1nonc1NC(C)=O,-4,-5,i,0,3,3,-2,-57,
Cc1ccccc1C(OCCN(C)C)C1CCCCC1 (stereo unspecified),1,.,i,-12,-7,-24,-1,-11,
Cc1ccc(Nc2nc(C(=O)NCC3CCCO3)cs2)cc1 (stereo unspecified),-12,.,i,5,-2,1,1,26,
CCCCCN(C(=O)CCC(=O)OCc1cccc(C)c1)c1c(N)n(CCCC)c(=O)[nH]c1=O,.,0,i,-13,-11,2,.,31,

# Reprinted from the part before: six entries, then new ones.
SMILES,PABP polyA inh,Yeast UUG start,Rce1 inh,MT1-MMP act inh,MT1-MMP act inh RFP,CSC inhib,eIF4H inh,Env fusion inh,others
CCc1ccc(CN2C(=O)c3ccccc3C2C(=O)NCc2cccnc2)cc1 (stereo unspecified),-5,-28,i,-2,-2,-6,-5,7,
CCc1ccccc1NC(=S)N(CCN(C)C)C(C)c1cccnc1 (stereo unspecified),-5,-27,i,3,2,0,-3,-19,
CC(=O)Nc1nonc1NC(C)=O,-4,-5,i,0,3,3,-2,-57,
Cc1ccccc1C(OCCN(C)C)C1CCCCC1 (stereo unspecified),1,.,i,-12,-7,-24,-1,-11,
Cc1ccc(Nc2nc(C(=O)NCC3CCCO3)cs2)cc1 (stereo unspecified),-12,.,i,5,-2,1,1,26,
CCCCCN(C(=O)CCC(=O)OCc1cccc(C)c1)c1c(N)n(CCCC)c(=O)[nH]c1=O,.,0,i,-13,-11,2,.,31,
CCCCC(CC)CNC(=O)C(=O)c1ccccc1NC(C)=O (stereo unspecified),-8,.,i,10,-1,-5,-6,2,
O=C(Oc1ccc(N(Cc2cccs2)C2=NS(=O)(=O)c3ccccc32)cc1)c1ccccc1Cl,6,-12,i,-11,-9,.,-1,.,
Cc1cc(NCCC(C)C)n2nc(C)c(-c3ccccc3)c2n1,-3,9,i,3,-4,.,-7,-13,
CC(=O)/C(N=Nc1cccc(C(F)(F)F)c1)=C(\C)O,0,.,i,3,3,1,-3,-6,
O=C(CSc1nc2nc3c(cc2c(=O)n1-c1ccccc1)CCCC3)Nc1ccccc1,8,-16,i,-7,-8,-9,-3,.,
COc1ccc(CNC(=O)CCN2C(=O)c3ccncc3C2=O)cc1OC,8,-13,i,2,3,4,-7,-3,
CCCNC(=O)c1ccccc1NC(=O)COc1ccc(OC)cc1,1,13,i,0,-2,-10,7,-27,
COc1ccc(/C=N/NC(=O)C(C)n2cnc3ccccc3c2=O)cc1 (stereo unspecified),0,27,i,-7,-7,-12,-2,.,
O=C(Cc1coc2ccc3ccccc3c12)Nc1nccs1,-3,-12,i,-4,5,4,-10,-24,
CCNC(=O)CC1C(=O)N(c2ccc(F)cc2)C(=S)N1CCc1ccncc1 (stereo unspecified),-8,.,i,0,-2,-8,25,30,
COCCNS(=O)(=O)c1cc(Br)ccc1OC,0,-11,i,-1,-3,-13,2,17,
CC1CCN(C(c2ccc(N(C)C)cc2)c2nnnn2C(C)(C)C)CC1 (stereo unspecified),26,-11,i,0,1,-2,0,.,
COCCNC(=O)C1(C)CCCN(Cc2ccc(-n3ccnc3)cc2)C1 (stereo unspecified),.,-17,.,-3,1,.,.,-9,
O=C(COC(=O)C1CC(=O)N(Cc2ccccc2)C1)Nc1ccccc1F (stereo unspecified),3,.,i,-3,4,-12,0,21,
Cn1nnnc1SCC(=O)NCc1cc([N+](=O)[O-])ccc1O,3,.,.,-2,-1,0,-4,0,
Cc1c(Cl)cnc(NC(=O)COC(=O)c2ccc(S(=O)(=O)NCc3ccco3)cc2)c1Cl,-11,.,i,-7,4,-4,59*,5,eIF4H inh retest=87*;PABP polyA inh retest=43
Cc1ccc2nc(-c3ccc(NC(=O)c4ccco4)cc3)[nH]c2c1,-43,-39,i,12,-2,.,-33,.,
CCCOc1ccc(N2CC(C(=O)NC(C)C)CC2=O)cc1 (stereo unspecified),2,-5,i,-2,1,0,-1,-19,
O=C1Nc2cccnc2N(C(=O)CCl)c2ccccc21,5,3,i,-8,-2,-3,-2,21,
COC(C(=O)Nc1cccc(F)c1)c1ccccc1 (stereo unspecified),11,.,i,4,-2,-12,-14,.,
CCOc1ccc(-n2cc(C(=O)Nc3cccc(OC)c3)c3cc(OC)c(OC)cc3c2=O)cc1,1,-10,i,1,-5,-5,-12,-12,
O=C(O)c1ccccc1C1=Nc2ccc(O)cc2Oc2cc(O)ccc21,?,.,i,-210,3,-6,?,.,
CCCCCCCCCC(=O)NNC(=O)c1c(O)c2ccccc2n(CC)c1=O,2,8,.,-1,-4,19,19,14,
Cc1ccc(CSCCNC(=O)c2ccc(C)cc2)cc1,-2,.,.,0,-1,-13,-1,-4,
CCc1ccccc1Oc1nc(NCc2ccccc2)nc2ccsc12,.,-1,.,-9,-18,.,.,34,
O=C(NCCCN1CCOCC1)c1[nH]c(C(F)(F)F)nc1-c1ccccc1,.,-9,.,3,4,.,.,-20,
Cc1ccccc1COc1ccc2oc(C)c(C(=O)O)c2c1,14,.,i,0,0,-11,-7,12,
O=C1c2ccccc2C(=O)N1CCc1csc(-c2cccc(F)c2)n1,0,-9,i,2,0,-5,7,-35,
COc1ccc(C(=O)Nc2ccc(S(=O)(=O)Nc3onc(C)c3C)cc2)c(OC)c1,-16,.,i,5,3,-3,1,7,
COCCNC(=O)C(c1cccc(OC)c1)N(Cc1cccs1)C(=O)Cn1nnc2ccccc21 (stereo unspecified),-18,-21,i,-1,2,2,-5,-51,
CCn1cc2nc(SCC(=O)Nc3ccccc3F)n(Cc3ccccc3)c(=O)c2n1,10,3,i,3,-1,-10,4,2,
CCOC(=O)Cn1nc(C)c([N+](=O)[O-])c1C,9,.,i,3,1,-12,-1,3,
OCC[C@@H]1C[C@H](O)[C@@H](O)[C@]2(Cc3ccccc3CO2)O1,-4,-21,i,-3,-2,1,3,16,
CC/C(=N\O)C(C)(C)/[N+]([O-])=C/c1ccc(Br)cc1,0,-25,i,4,6,-19,0,1,
C[C@@H](C(=O)N1CCN(C(=O)OC(C)(C)C)CC1)n1cc(-c2cn([C@@H](C)C(=O)N3CCN(C(=O)OC(C)(C)C)CC3)nn2)nn1,-3,.,i,.,.,.,8,.,
CNC(=O)COc1cccc(C(=O)NCc2ccccc2)c1,37,.,i,15,10,2,-1,2,
O=C(Nc1ccccc1N1CCOCC1)c1cc(Br)c(Br)s1,6,.,i,0,2,-5,0,1,
CNC(=O)[C@@H]1CCC(=O)N1,.,-19,.,1,4,-3,.,6,
CCCn1cc(CN2CCCC(C(=O)c3cccc(OC(C)C)c3)C2)c(C)n1 (stereo unspecified),-9,.,i,4,-4,4,-4,19,
COc1ccc(C(=O)NCc2ccc3c(c2)cc(C)n3C)cc1OC,-9,-6,i,41,59,5,25,15,
COc1cccc2c(=O)c3c(oc12)CCCC3,.,-9,.,1,5,.,.,11,
Cc1cc(C(=O)NCCCN2CC(C)CC(C)C2)n(-c2ccccc2)n1 (stereo unspecified),1,-26,i,-2,-4,-4,-5,6,
COc1ccccc1C(C(C(=O)c1ccccc1)N1CCOCC1)N1CCOCC1 (stereo unspecified),.,-7,.,-8,2,.,.,1,
CC(C)C[C@H](NC(=O)c1nc[nH]c1C(=O)NC1CCNCC1)C(=O)OC(C)(C)C,.,-6,i,0,1,-4,.,-1,
Cc1ccc2nc(SCC(=O)c3ccccc3)nc(=O)n2c1,.,.,i,-2,0,-4,.,-139,
Cc1ccc(-c2ccc(/C=C(\C#N)C(N)=S)n2C)cc1,?,.,i,-8,2,17,?,-24,
Cc1noc(NS(=O)(=O)c2ccc(NC(=O)c3ccc(Cl)c(S(=O)(=O)N(C)c4ccccc4)c3)cc2)c1C,.,-6,.,3,0,.,.,-6,
O=S(=O)(NCC1OCCc2ccccc21)c1ccccc1 (stereo unspecified),1,4,i,3,1,-3,-22,49,
Cc1cccc(C)c1OCCNC(=O)OCc1ccccc1,6,-16,.,-2,1,19,-4,9,
CC(=O)NC(Cc1ccccc1)C(=O)OCC(=O)c1ccc(F)cc1 (stereo unspecified),6,.,i,2,6,7,-8,.,
COC(=O)CSc1nnc(-c2ccc(NS(=O)(=O)c3ccccc3)cc2)o1,0,-3,i,10,1,5,-13,.,
S=C1CCC(c2ccc(Br)cc2)=NN1c1ccccc1,0,.,i,-2,-1,26,0,-6,
CCCOc1ccc(/C=C/C(=O)Nc2ccc([N+](=O)[O-])cc2)cc1,-3,-9,i,-2,-16,25,9,68*,
COc1ccc(C)cc1NC(=O)c1ccc(S(=O)(=O)N2CCCCC2)cc1,6,-10,.,4,2,10,1,10,
CCN(C(=O)CSc1nccc(=O)[nH]1)c1cccc2ccccc12,.,-4,.,3,7,-8,.,.,
Cc1csc2nc(CNC(=O)c3ccco3)cn12,0,-25,i,3,9,13,12,.,
COc1ccc(-c2[nH]ncc2CN2CCCO2)c(F)c1,17,-7,i,-3,3,7,0,4,
O=C(Cn1ncc2c(=O)oc3ccccc3c21)N(Cc1ccco1)C1CCCCC1,-5,11,i,4,6,-5,7,19,
CC(=O)Nc1sc(C)c(C)c1C(=O)OC(C)C,-5,-14,i,2,1,-6,-2,-39,
O=C(c1ccc2oc(Cc3ccc(Cl)cc3)nc2c1)N1CCCCC1CCO (stereo unspecified),14,-12,.,-1,-5,-7,2,15,

# The listing continues:
SMILES,PABP polyA inh,Yeast UUG start,Rce1 inh,MT1-MMP act inh,MT1-MMP act inh RFP,CSC inhib,eIF4H inh,Env fusion inh,others
Cc1nn(C)cc1C(C(=O)NC1CCCCC1)N(Cc1ccc(F)cc1)C(=O)c1cnccn1 (stereo unspecified),-4,.,i,3,5,-4,-7,2,
COc1ccc(CNC(=O)N[C@@H](CC(C)C)C(=O)O)cc1OC,-12,.,i,-1,1,-18,-7,-2,
CN(N=C(c1ccccc1)c1ccccc1)c1ccccc1,.,-17,.,1,-5,.,.,-1,
COc1ccc(C(=O)NCCn2cc(SCC(=O)Nc3cc(C)on3)c3ccccc32)cc1OC,-3,7,i,4,-3,6,-7,-67,
COCC(=O)Nc1ccc(N2CCOCC2)c(S(=O)(=O)Nc2ccc(OC)cc2)c1,.,5,.,-2,-3,-19,.,-15,
CCC(=O)Nc1cc(=O)[nH]c2nc(-c3ccc(Cl)cc3)nn12,1,-24,.,0,1,8,3,-12,

# Bioassay records from PubChem BioAssay.
